KCNQ2 inh = KCNQ2 channel blockers in CHO-K1 cells – cell-based, FluxOR thallium flux, B-score, primary screen (AID 2156); O88943; B-score at 10 µM; 310,000 tested, 1.1% active; 20 min; hits give low values; only compounds with negative scores are shown here; some inactives read as strong as hits;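 active = fluorescence ratio B-score at most minus 3 library SDs, with starting brightness B-score within 2 library SDs, cut at about -5.5 in these data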
Target sequence (O88943 whole entry, looked up): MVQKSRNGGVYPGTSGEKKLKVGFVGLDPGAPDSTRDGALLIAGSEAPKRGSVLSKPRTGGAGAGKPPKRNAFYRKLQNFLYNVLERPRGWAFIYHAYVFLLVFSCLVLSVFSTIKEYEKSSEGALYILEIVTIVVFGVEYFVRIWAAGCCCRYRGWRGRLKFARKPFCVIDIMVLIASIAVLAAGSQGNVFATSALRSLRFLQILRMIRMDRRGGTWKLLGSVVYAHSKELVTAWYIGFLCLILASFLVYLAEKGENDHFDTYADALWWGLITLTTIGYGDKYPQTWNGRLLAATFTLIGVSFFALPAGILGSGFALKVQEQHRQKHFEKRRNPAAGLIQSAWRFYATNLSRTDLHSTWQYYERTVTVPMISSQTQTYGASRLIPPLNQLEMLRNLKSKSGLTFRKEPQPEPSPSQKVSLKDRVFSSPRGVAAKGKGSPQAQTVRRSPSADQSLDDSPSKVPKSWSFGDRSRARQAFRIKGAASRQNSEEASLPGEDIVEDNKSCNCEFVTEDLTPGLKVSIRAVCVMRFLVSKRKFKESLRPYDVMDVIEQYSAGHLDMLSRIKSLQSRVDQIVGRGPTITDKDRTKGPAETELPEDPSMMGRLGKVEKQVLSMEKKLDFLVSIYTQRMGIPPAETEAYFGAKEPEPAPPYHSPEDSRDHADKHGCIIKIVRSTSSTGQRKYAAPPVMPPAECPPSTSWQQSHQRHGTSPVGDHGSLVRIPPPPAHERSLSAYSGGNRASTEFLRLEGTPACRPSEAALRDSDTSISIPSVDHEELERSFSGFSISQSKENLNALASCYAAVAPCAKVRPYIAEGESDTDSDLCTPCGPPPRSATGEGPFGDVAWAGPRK
KCNQ2 inh baseline = further read-out of KCNQ2 inh, marked with its call; B-score; measured here: initial fluorescence intensity artifact check;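 brightness before thallium and not channel activity; 0 = typical well and far values either way flag optical interference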
* marks the source's active call; other numbers are inactive results; i = inactive. The list is partial. The share of hits here may be higher or lower than overall.

Screens in order – KCNQ2 inh	KCNQ2 inh baseline
O=C(O)CC(NC(=O)C12CC3CC(CC(C3)C1)C2)c1cccc(Cl)c1 (stereo not given)
  i	-0.39
Cc1ccn2cc(C34CC5CC(CC(C5)C3)C4)nc2c1
  i	1.5
CCN1C(=O)/C(=C2/Sc3ccccc3N2CC)S/C1=N\c1ncn[nH]1
  i	-1
CCOC(=O)c1c(CSc2ccc(C)cc2)n(C)c2cc(Br)c(O)c(CN(C)C)c12
  i	-0.18
COc1cc(OC)c(OC)cc1/C=C1/Cc2ccccc2C1=O
  i	8.1
CCOc1ccc2nc(NC(=O)C34CC5CC(CC(NC(C)=O)(C5)C3)C4)sc2c1
  i	1.4
CCN(CC)C(=O)C1CCC(CNS(=O)(=O)c2cccc3cccnc23)CC1 (stereo not given)
  i	0.32
CCCN1CCN(CCCNC(=O)CN2C(=O)c3cccnc3Oc3ccc(Cl)cc32)CC1
  i	-0.49
O=C1CN(S(=O)(=O)c2cc(Cl)ccc2Cl)CCN1
  i	-0.19
CN1C(=O)C(CC(=O)NC2CCCCC2)SC1=Nc1ccccc1 (stereo not given)
  i	0.97
CCCCn1c(N)c(N(CC(C)C)C(=O)C2CC(=O)N(c3ccc(CC)cc3)C2)c(=O)[nH]c1=O (stereo not given)
  i	1.8
Cn1c2ccccc2c2cc(/C=N/NC(=O)c3ccc(O)cc3O)ccc21
  i	-1.9
Cc1cc(-c2ccccc2)n2ncnc2n1
  i	0.12
O=C(Nc1nc2cc3c(cc2s1)OCO3)c1cccc(N2C(=O)CCC2=O)c1
  i	-1.3
COc1ccc(COc2cc(-c3cccc(OC)c3)nc3ccc(NC(=O)c4ccccc4)cc23)cc1
  i	-0.06
CC(=O)Nc1nc(-c2ccc(Cl)cc2)ns1
  i	0.35
Cc1ccc(NC(=O)C2CCCN(C(=O)c3ccc(Cl)cc3)C2)cc1 (stereo not given)
  i	-0.83
CSc1ccccc1NC(=O)COC(=O)c1c[nH]c(=O)[nH]c1=O
  i	0.51
O=C(NCCCn1ccnc1)C(F)(F)C(F)(F)C(=O)NCCCn1ccnc1
  i	0.37
COc1ccccc1/C=C/C=N/n1c(-c2ccc(C)cc2)n[nH]c1=S
  i	1.6

A second format for some results above:
Compound: Cc1cc(-c2ccccc2)n2ncnc2n1
  KCNQ2 inh: i; KCNQ2 inh baseline: 0.12

Compound: O=C(Nc1nc2cc3c(cc2s1)OCO3)c1cccc(N2C(=O)CCC2=O)c1
  KCNQ2 inh: i; KCNQ2 inh baseline: -1.3

Additional structures follow:
Screens in order – KCNQ2 inh	KCNQ2 inh baseline
COc1c2ccoc2c(OC)c2oc(=O)ccc12
  i	0.04
COc1cc(S(=O)(=O)N2CCOCC2)c(OC)c(S(=O)(=O)N2CCOCC2)c1
  i	1.4
CCOC(=O)N1CCN(C(=O)c2ccc3nc(N4CCC(C)CC4)sc3c2)CC1
  i	-2
O=C(c1ccccc1Cc1ccccc1)N1CCN(S(=O)(=O)c2ccccc2[N+](=O)[O-])CC1
  i	0.22
CCOC(=O)CC1(NC(=O)C2CCC(=O)N(C3CC3)C2)CCCCC1 (stereo not given)
  i	-1.5
CN(CCC#N)C(=O)COC(=O)c1ccc(Cl)cc1O
  i	1.6
O=C(O)c1ccccc1/C=N/Nc1ccc(S(=O)(=O)N2CCCC2)cc1[N+](=O)[O-]
  i	-0.98
CC(Sc1nnc(C2CC2)n1N)C(=O)NC1CCCCC1C (stereo not given)
  i	0.91
CON(C)S(=O)(=O)c1cccc(C(=O)NC2CCSc3ccccc32)c1 (stereo not given)
  i	-0.92
Cc1ccc(CNC(=O)CSc2nc3ccsc3c(=O)n2Cc2ccc(C(=O)O)cc2)cc1
  i	1.3
COc1ccc(Cn2c(=O)cc(C)[nH]c2=S)cc1
  i	-2.5
O=C(Nc1ccccc1)c1ccc(NCc2ccco2)c(S(=O)(=O)N2CCOCC2)c1
  i	-1.1
C=C(C)c1cccc(C(C)(C)NC(=O)NCC2COCCO2)c1 (stereo not given)
  i	-1
CC1CCCN(S(=O)(=O)c2ccc(S(=O)(=O)N3CCC4(CC3)OCCO4)cc2)C1 (stereo not given)
  i	-0.77
CCOC(=O)c1c(CSC(=N)N)n(-c2ccccc2)c2cc(Br)c(OC(C)=O)cc12
  i	-0.46
Cc1cc(C)cc(NC(=O)C2CCCN(c3ncccn3)C2)c1 (stereo not given)
  i	-0.43
COc1ccc(Cn2nnnc2C(CC(C)C)N2CCC(C(N)=O)CC2)cc1 (stereo not given)
  i	-1.4
CNS(=O)(=O)c1ccc(NC(=O)c2cnn3c(C(F)F)cc(-c4ccccc4)nc23)cc1
  i	0.68
O=C1CCc2cc(NS(=O)(=O)c3cc(F)ccc3F)cc3c2N1CC3
  i	-0.07
CCC(C)NCC(=O)Nc1ccc([N+](=O)[O-])cc1C(=O)Nc1ccccc1F (stereo not given)
  i	-0.12
CCN(Cc1ccccc1)S(=O)(=O)c1ccc(C(=O)N(CCCN(C)C)c2nc3c(F)cccc3s2)cc1
  i	1.6
Cc1ccsc1C(=O)NN=C1CCCCCC1
  i	1.8
CCOc1cc(NC(=S)NCC2CCCO2)c(OCC)cc1NC(=O)CC(C)C (stereo not given)
  i	-0.19
O=C(Cc1ccc(Cl)cc1)NCc1nc(-c2ccccc2)no1
  i	0.69
Cc1cccc(OCC(=O)Nc2ccccc2F)c1
  i	0.67
CSCCC(=O)N1CCCC(CNC(=O)c2ccc(-c3ccccc3)cc2)C1 (stereo not given)
  i	0.73
Cc1ccccc1NC(=O)/C(=C/c1ccco1)c1ccccc1
  i	-1.6
O=C(NCCc1ccccc1)C1CCC(=O)N(Cc2ccc(Cl)cc2)C1 (stereo not given)
  i	0.59
COc1ccc(CC(=O)Oc2ccc(Br)cc2F)cc1S(=O)(=O)N1CCOCC1
  i	-0.11
O=c1c2ccccc2nc(SCc2cn3ccsc3n2)n1-c1ccc(F)cc1
  i	-0.08
O=C(Oc1ccc2ccccc2c1)c1cncc(Br)c1
  i	-0.85
CCN(CC(=O)Nc1ccccc1OC)CC(=O)Nc1ccccc1-c1ccccc1
  i	-0.14
CC1=Nn2c(nc(-c3ccccc3)c2-c2ccccc2)NC(=O)C1Br (stereo not given)
  i	0.82
CCCn1c(=NC(=O)CCS(=O)(=O)c2ccccc2)sc2cc(S(N)(=O)=O)ccc21
  i	-0.23
Cc1ccc(Oc2ccccc2NC(=O)C2=COCCO2)cc1
  i	0.43
O=C(Cc1n[nH]c(=O)c2ccccc12)OCC(=O)N(Cc1ccccc1)Cc1ccccc1
  i	0.49
CC1CN(c2oc(Cc3cccc4ccccc34)nc2C#N)CC(C)O1 (stereo not given)
  i	1.1
CCOc1ccc(NC(=O)CCN2CCN(S(=O)(=O)c3cc(Cl)ccc3OC)CC2)cc1
  i	0.64
Cn1c(/N=C/c2ccc3c(c2)OCO3)nc2ccccc21
  i	0.07
CN(CC(=O)Nc1ccccc1Br)C(=O)c1ccncc1
  i	-1.1

Reprinted from the part before: 2 compounds, then new ones.
Screens in order – KCNQ2 inh	KCNQ2 inh baseline
Cn1c(/N=C/c2ccc3c(c2)OCO3)nc2ccccc21
  i	0.07
CN(CC(=O)Nc1ccccc1Br)C(=O)c1ccncc1
  i	-1.1
O=c1[nH][nH]c(C(F)(F)F)c1C=Nc1ccccc1
  i	-0.58
COc1ccc(NC(=O)Cc2ccccc2)cn1
  i	2
CCOC(=O)C1=C(C)NC(C)=C(C(=O)OCC)C1c1ccccc1/C=C/C(=O)OC(C)(C)C
  -6.7*	0.01*
CCOC(=O)C1=C(C)NC2=C(C(=O)CCC2)C1c1ccsc1 (stereo not given)
  i	1.2
Cc1nnc(N/N=C/c2ccc(-c3ccc(Br)cc3)o2)n1N
  i	-0.86
O=C(c1ccccc1)N1CCC(CC2CC(c3ccc(Cl)cc3)=NO2)(C(=O)NCC2CCCCC2)CC1 (stereo not given)
  i	-1.3
CC1Cc2nc(SCC(=O)N3CCN(c4ccccc4)CC3)n(CCc3ccccc3)c(=O)c2S1 (stereo not given)
  i	-1
O=C1CCC(C(=O)N2CCC(CO)(Cc3ccc(Cl)cc3)CC2)=NN1
  i	-1.5
CS(=O)(=O)N(CCC#N)Cc1ccc(/C=C2\C(=O)Nc3ccccc32)o1
  i	2.3
CSc1ccc(-c2sc(Nc3cccc4ccccc34)n[n+]2-c2ccccc2)cc1
  -5.6*	-0.86*
O=C(c1ccc(=O)[nH]c1)N1CCN(S(=O)(=O)c2cc(C(F)(F)F)ccc2Cl)CC1
  i	-0.65
O=C(O)c1ccc2c(c1)C(=O)N(N1C(=O)c3ccccc3C1=O)C2=O
  i	1.2
COc1ccc(S(=O)(=O)N(Cc2ccccc2)c2ccccc2C(=O)Nc2ccccc2C(=O)NCc2ccco2)cc1
  i	1.2
COc1cccc(/C=C2\SC(=S)N(CCCC(=O)N3CCCCC3)C2=O)c1
  i	1.4
O=C(N/N=C/c1cccs1)c1cnccn1
  i	2
O=C(c1cc(-c2ccc(O)cc2)on1)N1CCc2ccccc2C1
  i	-0.84
O=C(NCc1ccc2c(c1)OCO2)c1ccc(CS(=O)(=O)c2cccc(C(F)(F)F)c2)o1
  i	-0.09
O=C(NCCCN1CCOCC1)C(c1ccccc1)c1ccccc1
  i	-0.36
CC(C)[C@H](NC(=O)N1CC(=O)Nc2ccccc21)C(=O)N1CCC(C(=O)O)CC1
  i	0.11
OC1CCN(Cc2cn(Cc3ccccc3)nc2-c2cc3ccccc3o2)CC1
  i	0.55
Cc1cc(SCC(=O)NCCC2=CCCCC2)nc2ccccc12
  i	-0.63
CCOC(=O)c1ccccc1NC(=O)CSc1ccccc1
  i	-1.4
CCNc1nc(N2CCCC2)nc(N2CCCC2)n1
  i	0.93
O=C1CC2(CCN(C(=O)c3ccc(Br)cc3)CC2)Oc2ccccc21
  i	-0.38
COc1ccc(CN(C)CC(=O)Nc2sc3c(c2C#N)CCC3)cc1OC
  i	1.5
Cc1ccc(C)c(SCc2nc3sc(C(=O)O)c(C)c3c(=O)[nH]2)c1
  i	-0.41
C/C(CC(=O)Nc1cccnc1)=N\NC(=O)C(C)Oc1ccc(Cl)cc1Cl (stereo not given)
  i	-0.23
Cc1nc2nc(C)c(CCC(=O)N3CCOCC3)c(C)n2n1
  i	-1.3
CCCN(CC(=O)Nc1cc(Cl)cc(Cl)c1)CC(=O)Nc1ccc(F)c(F)c1F
  i	-3
COc1ccc(/C=C/c2nnc(NC(=O)CC(C)C)s2)cc1
  i	-0.55
COc1ccc(-c2[nH]ncc2CN2CCC(N3CCSCC3)CC2)c(F)c1
  i	1.4
O=C1C=C(Nc2cccc(Cl)c2)CC(c2ccco2)C1 (stereo not given)
  i	-1.1
CCc1ccc(NC(=O)c2cc(Br)ccc2Br)cc1
  i	1.3
CCCC1(CCC)C(=O)NC(=NCCc2ccc(OC)c(OC)c2)NC1=O
  i	-1
CC(=O)c1nn(-c2ccc(Cl)cc2)c(=O)[nH]c1=O
  i	-0.3
Cc1cc(O)c2c(C)c(CC(=O)N3CCN(C(=O)C4COc5ccccc5O4)CC3)c(=O)oc2c1 (stereo not given)
  i	-1.3
CCOc1ccccc1NC(=S)Nc1ncccc1C
  i	0.06
Cc1ccc(Nc2nc3c([nH]2)c(=O)[nH]c(=O)n3C)cc1
  i	-0.2
CC(=O)N1c2ccc(S(=O)(=O)NCCC(=O)N3CCC(C)CC3)cc2CC1C (stereo not given)
  i	1.7
CCOC(=O)c1cccc(NS(=O)(=O)Cc2ccccc2)c1
  i	1.9
COc1ccc(C(=O)NC2CCN(CC(=O)N3CCCCC3)CC2)cc1
  i	0.24
COc1cccc(NC(=O)CSc2nc(C)cs2)c1
  i	0.98
O=C(CSC1=NCCS1)Nc1ccnc2ccccc12
  i	-0.17
O=C(Nc1cc(C(F)(F)F)ccc1Cl)C(Sc1nnc(-c2cccs2)o1)c1ccccc1 (stereo not given)
  i	0.46
CCC(=O)NCCCCCCNC(=O)CC
  i	-1.8
CCOC(=O)C(C)Sc1nnc(CNC(=O)c2ccc(OC)cc2)n1C1CCCCC1 (stereo not given)
  i	0.09
CCCCN(CCCC)CCNC(=O)c1cn(C)c2ccc(S(=O)(=O)N3CCCC3)cc2c1=O
  i	-4.1
O=C(NCCn1ccc2ccccc21)c1ccc(S(=O)(=O)N2CCCCC2)cc1
  i	2.3
Cc1ccc(C)c(CN2C(=O)COc3ccccc32)c1
  i	-1.2
CC(NC(=O)CCc1nnc(CCCc2ccccc2)o1)c1ccccc1 (stereo not given)
  i	-2.9

Carrying on:
Screens in order – KCNQ2 inh	KCNQ2 inh baseline
Cc1ccc(S(=O)(=O)NC(=O)NC(=O)N(C)S(=O)(=O)c2ccc(C)cc2)cc1
  i	1.8
Cc1ccc(CNc2ncnc3cc(Cl)ccc23)cc1
  i	-0.81
CCCc1nc2oc3c(=O)[nH]cnc3c2c2c1COC(C)(C)C2
  i	-1
Cc1cc(C)cc(NC(=O)N2CCN(S(C)(=O)=O)CC2)c1
  i	0.9
CCN(C(=O)C1=COCCO1)c1nc2c(C)cccc2s1
  i	0.14
Cn1c(=NC(=O)CS(=O)(=O)c2ccccc2)sc2ccccc21
  i	1.8
Cc1cccc(-c2cc3nc(C)c(C)c(NCCCn4ccnc4)n3n2)c1
  i	5.2
O=C(CNS(=O)(=O)c1c(Cl)cccc1Cl)OCC(=O)N1CCN(c2ccccc2)CC1
  i	0.68

5 neighbouring compounds from above, quoted:
Screens in order – KCNQ2 inh	KCNQ2 inh baseline
Cc1ccc(S(=O)(=O)NC(=O)NC(=O)N(C)S(=O)(=O)c2ccc(C)cc2)cc1
  i	1.8
Cc1ccc(CNc2ncnc3cc(Cl)ccc23)cc1
  i	-0.81
CCCc1nc2oc3c(=O)[nH]cnc3c2c2c1COC(C)(C)C2
  i	-1
Cc1cc(C)cc(NC(=O)N2CCN(S(C)(=O)=O)CC2)c1
  i	0.9
CCN(C(=O)C1=COCCO1)c1nc2c(C)cccc2s1
  i	0.14
